# Beta cell apopt: beta cell apoptosis inhibition. INS-1E cytokine-induced death, ATP luminescence, 48 h; percent of positive-control rescue, neutral wells zero. protection from apoptosis, % (no concentration beside the values). 300,000 tested, 0.8% active;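 active = all replicates at 75% or more, or half of them and the mean; inconclusive = half reach 75% but not the mean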;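 also: 0% = cytokine-treated negative control wells and 100% = positive control rescue; higher means more ATP so stronger rescue from cytokine killing; wells of about 40 µL received 100 nL stock; the first replicate is given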
# ALR inh: inhibitors of human sulfhydryl oxidase ALR. purified ALR, DTT oxidation, H2O2 HRP-luminol luminescence. inhibition, % (concentration not given with the values). 290,000 tested, 3.8% active;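 active = mean and each replicate at 75% or more; inconclusive = only one of the two met; inactive = neither met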;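 also: stock transfer was 7.5 nL into about 7.5 µL; 0% = neutral wells and 100% = wells with inactivated enzyme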
# Target sequence (P55789 whole entry, looked up): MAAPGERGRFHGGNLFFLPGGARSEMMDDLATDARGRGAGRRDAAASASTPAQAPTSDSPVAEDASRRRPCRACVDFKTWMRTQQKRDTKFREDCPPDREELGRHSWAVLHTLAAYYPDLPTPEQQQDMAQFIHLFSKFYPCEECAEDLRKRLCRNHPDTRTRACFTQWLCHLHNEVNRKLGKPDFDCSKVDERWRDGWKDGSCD
# Ecoli rRNA inh: inhibitors of bacterial rRNA selective over humanized ribosomes | GFP signal change (wild-type ribosome), % (test concentration not listed) | AID 720706 | E. coli WT GFP vs humanized-ribosome RFP mutants, fluorescence, 24 h; stronger effect = lower value; DMSO median 0, no signal -100 | 350,000 tested, 1.6% active;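 active = significant combined selectivity score with lowered wild-type GFP, culture density cut under 30%, mutant RFP and density less affected; inactive = any of these conditions unmet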; also: one replicate is shown; some compounds called inactive have numbers as strong as hits
# LANA-H2B inh: blocks KSHV LANA binding to histone H2A/H2B; cell-free LANA-H2A/H2B peptide, fluorescence polarization; inhibition, % (test concentration not listed); 320,000 tested, 0.6% active; in the data active = inhibition mostly above about 10%, no sharp cut-off; inactive = mostly below about 6.7%;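 also: stock transfer was 7.5 nL into about 10 µL; 0% = median of vehicle wells and 100% = median of positive control wells; one replicate is shown; the record names a cut of 25% in any replicate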
# B2AR ag: human beta-2 adrenergic receptor agonism by FAP. Am2.2-beta2AR cells, FAP receptor internalization, flow cytometry; reference of the scale not given here. response, % (concentration not given with the values). 340,000 tested, 0.43% active. AID 504454;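 active = response above a set limit, near 3 SD of response in nonfluorescent compounds, cut at about 42% in these data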;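 also: stock transfer was 100 nL into about 11 µL; a reference agonist was the positive control; negative values mostly stem from fluorescent compounds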
# Target sequence (P07550 whole entry, looked up): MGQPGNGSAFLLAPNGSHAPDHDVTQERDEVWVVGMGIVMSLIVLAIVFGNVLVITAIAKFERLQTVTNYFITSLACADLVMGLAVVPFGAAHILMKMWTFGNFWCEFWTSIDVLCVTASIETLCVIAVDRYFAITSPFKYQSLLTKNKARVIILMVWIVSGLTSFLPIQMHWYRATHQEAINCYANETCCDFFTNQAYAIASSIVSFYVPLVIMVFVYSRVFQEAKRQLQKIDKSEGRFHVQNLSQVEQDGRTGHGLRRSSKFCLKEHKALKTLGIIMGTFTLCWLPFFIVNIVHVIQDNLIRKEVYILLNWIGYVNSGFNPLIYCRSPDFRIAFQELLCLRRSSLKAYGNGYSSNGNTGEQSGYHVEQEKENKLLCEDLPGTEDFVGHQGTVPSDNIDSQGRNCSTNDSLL
# Calb FLC: C. albicans growth modulation with fluconazole; 300,000 tested, 0.57% active; C. albicans CaCi-2 (fluconazole-resistant clinical isolate) + fluconazole, Alamar Blue growth, 48 h; growth inhibition, % (test concentration not listed); AID 1979;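 active = most replicates above 75%; inconclusive = exactly half above 75%; inactive = most below 75%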;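 also: all wells also contain fluconazole at 8 µg/ml as a sub-toxic cotreatment; 0% = median of DMSO wells and 100% = median of geldanamycin control wells; wells of about 8 µL received 7.5 nL stock; the first replicate is given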
# T cruzi inh: T. cruzi replication inhibition | 300,000 tested, 1.4% active | inhibition, % (concentration not given with the values) | T. cruzi beta-gal in NIH3T3, luminescence, 90 h;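 active = mean inhibition across valid replicates above about 55%, limit read from the data; inconclusive = mean below that limit but half or more replicates reach it; inactive = mean below it, under half of replicates reach it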;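 also: signal also drops with host cell toxicity which is not excluded here; 0% = plate median of DMSO wells and 100% = zero luminescence signal; higher percent means less beta-gal luminescence so fewer parasites; stock transfer was 50 nL into about 50 µL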
# A1 inh: inhibitors of the anti-apoptotic protein A1, read as caspase activation; AID 2462; caspase activation, % (test concentration not listed); 330,000 tested, 0.066% active; MEF A1-2A-BIM cells, Caspase-Glo 3/7 luminescence, 3 h; percent of clofoctol response, vehicle zero;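 active = over half of replicate activation scores above 10%, or exactly half above 10 with the replicate mean above 10; inconclusive = replicate mean below 10 yet half the replicates above 10; inactive = over half of replicates below 10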;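 also: wells of about 30 µL received 50 nL stock; many hits fall short of the cut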
# Ecoli rRNA inh OD600: also measured in Ecoli rRNA inh; calls as there; OD600 change, %; measured here: OD600 growth;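 optical density of the mix in the first replicate; 0 = DMSO median and -100 = no signal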
# Ecoli rRNA inh RFP: also measured in Ecoli rRNA inh; calls as there; RFP signal change, %; measured here: RFP humanized mutant strains;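 first replicate; 0 = DMSO median and -100 = no signal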
# The depositor's hits bear a star; ? = inconclusive; nt = not tested or not shown.
# Sample of the layout:
SMILES,Beta cell apopt,ALR inh,Ecoli rRNA inh,Ecoli rRNA inh OD600,Ecoli rRNA inh RFP,LANA-H2B inh,B2AR ag,Calb FLC,T cruzi inh,A1 inh
C/C(=N\NC(=O)c1ccc(O)cc1)c1ccc(N2CCOCC2)cc1,-4,42,3,3,-1.8,2.9,3,5,-5,0.6
Cc1sc(N/N=C/C=C/c2ccccc2)nc1-c1ccccc1,0,3,nt,nt,nt,0.9,-1,26,55*,0.9

# Results, from the start:
SMILES,Beta cell apopt,ALR inh,Ecoli rRNA inh,Ecoli rRNA inh OD600,Ecoli rRNA inh RFP,LANA-H2B inh,B2AR ag,Calb FLC,T cruzi inh,A1 inh
C/C(=N\NC(=O)c1ccc(O)cc1)c1ccc(N2CCOCC2)cc1,-4,42,3,3,-1.8,2.9,3,5,-5,0.6
Cc1sc(N/N=C/C=C/c2ccccc2)nc1-c1ccccc1,0,3,nt,nt,nt,0.9,-1,26,55*,0.9
CC(C)NCCCCOc1cccc(Br)c1,0,-7,nt,nt,nt,4.0,-12,-22,11,0.4
CCOC(=O)c1c(C)[nH]c(C(=O)COC(=O)c2oc3ccccc3c2C)c1C,5,0,nt,nt,nt,2.9,0,-2,13,0.0
N#CCSc1nc(N)c(C#N)c(C2CCCCC2)c1C#N,nt,nt,nt,nt,nt,10,0,5,-4,-1.2
Cc1ccc(Oc2ccc(Oc3ccc(C)cc3)nn2)cc1,-4,1,nt,nt,nt,0.8,2,-7,15,0.1
COP(=O)(c1ccc(N(C)C)cc1)C(O)c1ccccc1 (centres undefined),-1,60,16,5,1.9,-0.8,-1,2,-18,2.1
COc1ccc2oc(C(=O)N3CCN(c4ncccn4)CC3)c(C)c2c1,1,-4,-17,-11,1.4,-0.9,6,1,1,0.7
CN1C(=O)C(O)(C2COC(C)(C)CC2=O)c2cc(Br)ccc21 (centres undefined),-5,3,nt,nt,nt,10,4,-1,-2,-0.2
Nc1ccccc1Sc1ccccc1[N+](=O)[O-],-3,nt,nt,nt,nt,-0.4,0,-52,2,-0.9
COc1ccc(S(=O)(=O)N(CCCN2CCOCC2)Cc2cccc(OC)c2OC)cc1,-1,-20,nt,nt,nt,-1.5,0,7,5,0.9
COC(=O)c1ccc(C23CC4(C2)[C@H](CN(Cc2ccc(-c5ccccc5)cc2)[C@@H]4c2ccccc2)C3c2ccccc2)cc1 (some centres undefined),3,-5,12,6,-0.8,-0.8,9,-14,-15,-1.4
CCCCN(C(=O)C1CCC1)c1c(N)n(CCC)c(=O)[nH]c1=O,-5,-10,9,13,-1.5,2.5,-5,nt,-16,0.8
CC(C)N(Cc1ccccc1)C(=O)CN1C(=O)NC(Cc2ccccc2)(c2ccccc2)C1=O (centres undefined),2,-1,-14,-19,6.6,0.6,-10,-5,15,?
N#Cc1nc(Nc2cc(F)cc(F)c2)c2ncn(CC(F)F)c2n1,-3,-2,-27,-47,0.9,-4.7,2,nt,nt,-1.2
CNC(=O)COc1coc(CN2CCN(C(=O)c3ccco3)CC2)cc1=O,nt,-1,5,16,1.1,2.3,2,-2,-10,0.7
Cn1c(=S)[nH]c2c(c1=O)C(C)(C)Cc1ccccc1-2,-1,7,5,11,-1.2,9.1,-4,0,13,1.2
O=C(CCc1ccccc1)NC1C2CC3CC(C2)CC1C3 (centres undefined),2,-4,-23,-52,-2.2,-1.5,0,-21,-14,-0.1
O=C(c1ccc(S(=O)(=O)N2CCCCCC2)cc1)N1CCCC(C(F)(F)F)C1 (centres undefined),3,-10,11,9,-0.5,-3.0,-1,2,0,0.9
Cc1cnc(-c2nnc(N(C)C(=O)C3CCOC3)s2)cn1 (centres undefined),-1,0,nt,nt,nt,-5.0,-15,-1,-19,0.4
CCc1ccccc1NC(=S)N(CCCN(C)C)Cc1cc2cc3c(cc2[nH]c1=O)OCO3,-2,3,10,14,-2.0,-5.4,-7,10,3,-0.5
O=S(=O)([O-])C/C(=C\c1ccc(Cl)cc1)c1cc[n+](CCO)cc1,nt,-4,6,11,-1.1,-1.7,-3,-26,-4,0.4
Cc1cc(C)nc(NC2=NCC(=O)N2c2ccc(F)c(Cl)c2)n1,4,2,nt,nt,nt,5.7,-5,11,-7,0.1
c1ccc(C2CSc3ccccc3N2)cc1 (centres undefined),-1,13,20,16,2.5,-2.2,-17,-13,14,-1.6
O=C1CCCCC1Sc1nnc(Cc2cccs2)n1CCc1ccccc1 (centres undefined),4,13,nt,nt,nt,2.9,-3,nt,nt,-0.7
O=C(/C=C/c1c(Cl)cccc1Cl)N1CCN(c2ncccn2)CC1,nt,nt,nt,nt,nt,0.1,-15,25,6,0.3
Fc1ccc2nc(Nc3nc4cc5c(cc4s3)OCO5)sc2c1,9,-4,nt,nt,nt,6.2,-4,-5,-5,-1.8
CCOC(=O)C1=CC[C@H]2c3c(c4ccccc4n3C)C(=O)C1N2C(=O)OC(C)(C)C,-11,-3,7,8,6.3,3.7,-7,nt,nt,0.8
CCN1CCN(c2ccc(NC(=O)c3cnccn3)cc2)CC1,-4,0,nt,nt,nt,-0.9,nt,10,-5,-3.1
Cn1c(-c2ccc3c(c2)OCO3)cnc1NCc1ccccc1,-6,nt,nt,nt,nt,-3.4,0,-37,2,0.1
Cc1ccc(NC(=O)CSc2ccc3nnc(CCNC(=O)c4ccccc4)n3n2)c(C)c1,-10,11,nt,nt,nt,0.2,62*,-10,9,0.7
Clc1ccccc1-c1nc2ccccc2c2nc3ccccc3n12,-2,0,nt,nt,nt,-2.2,-26,67,19,0.3
O=C(NC(C(=O)c1ccccc1)N1CCCCC1)c1ccccc1 (centres undefined),-14,-2,nt,nt,nt,-0.3,16,-5,0,-0.2
CC(C)C(C)NC(=O)COc1ccc(-c2ccccc2)cc1 (centres undefined),4,-19,nt,nt,nt,0.6,-9,2,5,-0.3
CCCOc1ccc(C(=O)NCC(c2ccco2)N(C)C)cc1 (centres undefined),-17,-11,6,1,-5.4,-0.3,-8,4,-14,0.6
Cc1ccc(NC(=O)CCN2CCN(C/C=C/c3ccccc3)CC2)cc1,-6,nt,nt,nt,nt,2.3,-1,nt,nt,0.3
CC(=O)NCCC(=O)N1CCc2c([nH]c3ccccc23)C1c1cccc(Cl)c1 (centres undefined),0,2,-20,-18,-0.9,4.0,-1,44,20,0.8
C=CCOc1ccc(C2C(C#N)=C(N)N(Nc3ccccc3)C3=C2C(=O)CC(C)(C)C3)cc1OC (centres undefined),2,-6,nt,nt,nt,-0.4,-8,0,10,0.6
NS(=O)(=O)c1ccc(NCc2cc(Cl)ccc2OCc2ccc(F)cc2)cc1,9,-3,-34,-65,-16,-1.6,-10,12,-20,-0.3
Cc1cc(/C=C2/C(=N)N3C(=NC2=O)SN=C3S(C)(=O)=O)c(C)n1-c1ccccc1F,2,91*,nt,nt,nt,6.6,5,-10,-12,-0.5
CCCn1c(C)nnc1SCC(=O)NC1CCCCC1,nt,1,17,18,1.7,-5.7,-4,3,-28,-0.4
O=[N+]([O-])c1ccc(SCCO)nc1SCCO,-12,-1,3,2,1.4,2.4,-2,2,3,0.0
COc1ccc(CCn2c(=S)[nH]c3ccc(N4CCOCC4)cc3c2=O)cc1OC,-6,-13,-14,-16,-0.9,-392,9,-1,-16,0.2
Cc1cnc(NC(=O)C(C)N2C(=O)C3CC=CCC3C2=O)s1 (centres undefined),-5,-2,nt,nt,nt,-2.8,3,-17,3,-1.1
COc1ccc(N(CC(=O)NCc2ccc(F)cc2)C(=O)c2snc(C(N)=O)c2N)cc1OC,-3,-12,0,11,-6.4,0.5,21,15,1,-0.4
O=C(O)CN1C(=O)/C(=C\c2cccc(OCc3ccccc3)c2)SC1=S,nt,83*,-17,-5,1.6,-1.7,1,-6,12,0.1
COc1ccc2cc(C(=O)NCCO)sc(=O)c2c1OC,-3,nt,nt,nt,nt,8.5,-1,37,7,-0.4
O=c1[nH]cnc2cc(Cl)ccc12,-3,-9,nt,nt,nt,0.6,0,nt,-9,0.1
COc1ccccc1OCCOC(=O)Nc1ccccc1,-7,nt,-3,-3,-0.5,-3.7,2,-10,-6,0.8
COc1ccccc1-c1nc(SCC(=O)O)n[nH]1,-2,2,nt,nt,nt,7.0,-1,-5,-10,-0.1

# Profiles as entered above. Order of values: Beta cell apopt, ALR inh, Ecoli rRNA inh, Ecoli rRNA inh OD600, Ecoli rRNA inh RFP, LANA-H2B inh, B2AR ag, Calb FLC, T cruzi inh, A1 inh
# O=C(c1ccc(S(=O)(=O)N2CCCCCC2)cc1)N1CCCC(C(F)(F)F)C1 (centres undefined) in the list: 3, -10, 11, 9, -0.5, -3.0, -1, 2, 0, 0.9
# Cc1ccc(NC(=O)CSc2ccc3nnc(CCNC(=O)c4ccccc4)n3n2)c(C)c1 in the list: -10, 11, nt, nt, nt, 0.2, 62*, -10, 9, 0.7
# COc1ccc2cc(C(=O)NCCO)sc(=O)c2c1OC in the list: -3, nt, nt, nt, nt, 8.5, -1, 37, 7, -0.4
# CCOC(=O)c1c(C)[nH]c(C(=O)COC(=O)c2oc3ccccc3c2C)c1C in the list: 5, 0, nt, nt, nt, 2.9, 0, -2, 13, 0.0
# Cn1c(=S)[nH]c2c(c1=O)C(C)(C)Cc1ccccc1-2 in the list: -1, 7, 5, 11, -1.2, 9.1, -4, 0, 13, 1.2

# New compounds follow.
SMILES,Beta cell apopt,ALR inh,Ecoli rRNA inh,Ecoli rRNA inh OD600,Ecoli rRNA inh RFP,LANA-H2B inh,B2AR ag,Calb FLC,T cruzi inh,A1 inh
O=C1C(Cl)=C(NC(=O)c2ccccc2)C(=O)C(Cl)=C1NC(=O)c1ccccc1,nt,nt,6,-1,8.8,0.9,56*,15,68*,0.0
COc1cc(NS(=O)(=O)c2ccc(N/C=C(\C=O)c3nc4ccccc4o3)cc2)nc(OC)n1,-3,2,nt,nt,nt,-3.1,-11,22,-30,-0.7
CCN(CC)C(=O)C1=C(C)Nc2ncnn2C1c1cccnc1 (centres undefined),-1,nt,14,20,0.8,-2.1,-2,16,-3,-0.5
COc1ccc2c(c1)C(C)CC(C)(C)N2C(=O)NC1CCCCC1 (centres undefined),0,12,nt,nt,nt,-3.1,1,34,38,0.5
COCCOC(=O)c1cc(C(=O)c2cc(F)ccc2O)coc1=N,1,-12,nt,nt,nt,5.9,-14,-7,-4,0.8
Cc1ccc(S(=O)(=O)N2CC=C(C(=O)NCCC(C)C)CC2)cc1,-2,-1,3,-1,-4.4,0.5,-2,4,-2,1.0
CC1CCN(S(=O)(=O)c2ccc(NC(=O)C3CCN(C(=O)c4ccco4)CC3)cc2)CC1,1,-7,6,-15,4.7,-2.3,-3,4,4,-0.3
COc1ccc(C(OC(=O)c2ccco2)C(=O)NCc2ccc(C)cc2)cc1 (centres undefined),-6,6,nt,nt,nt,-3.2,2,-9,-17,-0.6
O=C(Nn1cnnc1)c1cc(-c2cccc(Br)c2)nc2ccccc12,-1,-1,1,-2,7.1,9.4,6,-6,1,-4.2
Cc1ccc(N2C(=O)CC(N3CCN(c4ccccn4)CC3)C2=O)cc1 (centres undefined),-4,-4,nt,nt,nt,5.4,0,?,-12,0.1

# Screening results: PubChem, several laboratories

# The list is partial; the hit share may differ from the screen's.
